Sa helicase inh: blocks Staphylococcus aureus DNA helicase; purified S. aureus helicase, fluorescence unwinding assay; about half of the hits fall short of the stated cut; 120,000 compounds, 0.05% hits; inhibition, %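 (tested at about 80 µM)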;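 active means both duplicates at 50% or more, or one of them with a favoured structure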;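 further: 0% = mean of negative control wells and 100% = mean of positive control wells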
MgrA DNA FP: alters Staphylococcus aureus MgrA binding to DNA; 84,000 compounds, 0.13% hits; fluorescence polarization; inhibition, %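 (about 10 µg/mL by stock and volumes)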;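 active means above 50% in either of two replicates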;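 further: 0% = protein plus DNA without compound and 100% = DNA alone without protein; higher means less MgrA bound to DNA so lower polarization; one replicate is shown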
Numbers without * were called inactive; / = no result given.

SMILES	Sa helicase inh	MgrA DNA FP
Cc1cc(C)c2c(=O)n(CC(=O)N3CCCCCC3)sc2n1	14	11
COc1ccc(N(/C=C2\Sc3ccccc3C2=O)C(=O)c2cccc(Cl)c2)cc1	/	-5.0
O=C(CSc1ccc2nnc(-c3ccccc3)n2n1)N1CCCC1	-21	/
O=C1/C(=C/c2ccc[nH]2)Cc2ccccc21	/	3.2
O=C(Nc1nc(-c2cccs2)c(-c2cccs2)s1)C1(c2ccccc2)CC1	-14	/
COc1ccccc1OC(C)C(=O)N(Cc1ccc(Cl)cc1)Cc1ccco1 (stereo unspecified)	-2	/
CCOC(=O)c1cc(CC)sc1NC(=O)C(F)(F)F	/	0.0
CN(C)c1ccc(/C=C/C=C2C(=O)c3ccccc3C2=O)cc1	7	1.4
CCOC(=O)C1=C(CN2CCC(C)CC2)NC(=O)NC1c1cccs1 (stereo unspecified)	-1	-1.4
CN1/C(=C\C(=O)COc2ccc(C(N)=O)cc2)C(C)(C)c2ccccc21	-19	/
O=C(CC(=O)c1ccccc1)Nc1ccc2c(c1)OCCO2	-15	/
CN(Cc1ccccc1)C(=O)CSc1nnc(-c2ccccc2)o1	2	/
Cc1cc(NCCN)nc2ccccc12	0	-1.8
O=C(c1ccco1)N1CCN(C(=O)c2cc(-c3ccc(F)cc3)no2)CC1	1	2.8
C=CCN1C(=O)/C(=c2\sc3n(c2=O)C(c2ccccc2Cl)C(C(=O)OCC)=C(C)N=3)c2ccccc21 (stereo unspecified)	/	-1.0
CNC(=O)CSc1nnc2[nH]c(=O)cc(C)n12	-15	/
COC(=O)CSc1nnc(-c2ccco2)n1Cc1ccco1	18	-0.6
COC(=O)CCSc1ccc(C(=O)OC)cc1N	7	-1.1
N#CCOC1OCCOC1OCC#N (stereo unspecified)	4	/
CCn1nnc2cc(C(=O)O)ccc21	-2	/
O=c1oc2ccc(Br)cc2cc1-c1ccc(S(=O)(=O)N2CCOCC2)s1	10	/
CC1(C)Oc2ccccc2C2CC(c3ccccc3)=NN21 (stereo unspecified)	-17	/
O=C(c1ccccc1)c1nc2ccccc2oc1=O	-68	/
Cc1noc(C)c1COc1cccc(C(F)(F)F)c1	22	/
CC(C)(C)C(=O)Cn1nnc(-c2cccc(C(F)(F)F)c2)n1	/	-0.7

Carrying on.
SMILES	Sa helicase inh	MgrA DNA FP
CCN1CCN(CCCNC(=S)Nc2ccc3nc(N4CCN(C)CC4)cc(C)c3c2)CC1	12	2.2
CCN(c1ccccc1)S(=O)(=O)c1ccc2[nH]cc(C(=O)NCCOC)c(=O)c2c1	-11	/
O=C(Cn1nc(-c2ccccc2)c2ccccc2c1=O)NCCO	-7	/
CCOc1ccc(-n2nc3cc(C)c(NC(=O)c4ccc(Br)o4)cc3n2)cc1	-1	1.9
CCOc1ccc(CCNC(=O)Nc2ccc(C)c(C)c2)cc1OCC	-3	-2.5
Cc1ccc(C(C)(C)C)cc1S(N)(=O)=O	-17	1.8
CCOC(=O)c1nnn(-c2nc(N3CCCC3)nc(N3CCCC3)n2)c1-c1ccccc1	12	/
Cc1cc(C)c2nc(NC(=O)c3ccc(C#N)cc3)sc2c1	6	3.8
CN(Cc1cccs1)C(=S)SCc1cccs1	-5	0.3
CCOC(=O)CSc1nc2ccc(Br)cc2c(=O)n1C	10	17
NCCCc1ccccc1Cl	9	1.1
CC(C)C(=O)Nc1ccc(C(=O)O)cc1	8	-2.3
Cc1ccc(N2C(=O)C3C4C=CC(O4)C3C2=O)cc1 (stereo unspecified)	-3	/
NC(=O)c1ccccc1OCc1nnc(-c2ccccc2Br)o1	-6	/
O=C1CC(c2ccc(F)cc2)CC(O)=C1C=NCCN1CCNCC1 (stereo unspecified)	-7	1.5
CCCNc1ccccc1OCC	22	/
CCOC(=O)c1c(CN2CCOCC2)[nH]c(C(=O)OCc2ccccc2)c1C	12	-1.3
CCOC(=O)C1=C(C)N=c2s/c(=C\c3ccc(OC)cc3OC)c(=O)n2C1c1ccc2c(c1)OCO2 (stereo unspecified)	/	1.4
Cc1c(Cl)cccc1NN	7	-4.4
Cc1ccc(CNS(=O)(=O)c2ccc3oc(=O)c4ncn(C)c4c3c2)cc1	-23	/
O=C(Oc1ccc(N(Cc2ccco2)C2=NS(=O)(=O)c3ccccc32)cc1)c1ccco1	35	/
CC(=O)OC(C(=O)NCc1ccco1)c1ccncc1 (stereo unspecified)	5	-0.2
Cc1ccc(NC(=S)Nc2cccnc2)c(S(=O)(=O)N2CCOCC2)c1	1	/
O=C(/C=C/c1ccccc1)Nc1cc2c(ccc3ccccc32)oc1=O	-3	0.0
CC(=Nc1ccc(Cl)cc1)c1ccsc1	/	-1.2

3 entries already listed, arranged by the value under Sa helicase inh, low to high.
molecule | Sa helicase inh | MgrA DNA FP
CN(Cc1cccs1)C(=S)SCc1cccs1 | -5 | 0.3
CCOc1ccc(CCNC(=O)Nc2ccc(C)c(C)c2)cc1OCC | -3 | -2.5
CCOC(=O)CSc1nc2ccc(Br)cc2c(=O)n1C | 10 | 17

Other compounds.
SMILES	Sa helicase inh	MgrA DNA FP
CC(Sc1nnc(COc2ccccc2)n1C)C(=O)Nc1nccs1 (stereo unspecified)	0	-0.7
CCCCSc1nnc2c(n1)OC(C1CC=C(C)CC1)Nc1ccccc1-2 (stereo unspecified)	/	0.7
O=C1CCCc2cc(S(=O)(=O)N3CCCC3=O)ccc2N1	-17	/
O=C(CSc1cc(C(F)(F)F)c2cc3c(cc2n1)OCO3)NCCN1CCOCC1	0	/
CC(C)(C)P(=NC(=S)NCc1ccccc1)(N1CCOCC1)N1CCOCC1	20	/
CCc1ccc2occ(CC(=O)Nc3ccc(Cl)cc3)c2c1	4	-0.1
COc1cc(/C=N/O)cc(OC)c1OC	2	-0.5
Cc1cc(C(F)F)n2nc(C(=O)Nc3ccc(C)c(C)c3)nc2n1	10	4.6
CC1CCC(NC(=O)Cn2ncn3c(cc4sccc43)c2=O)CC1 (stereo unspecified)	8	-0.6
O=C(O)/C(=C\c1cccs1)c1ccccc1	-3	-0.5
CC1CCN(C(=O)CN2N=C(c3ccccc3)CCC2=O)CC1	1	-0.1
CCCCN(C)S(=O)(=O)c1ccc2c(c1)OCCN2C(C)=O	1	-0.5
CC(C)CC(=O)NC1(C(F)(F)F)NC(=O)N(CC(C)C)C1=O (stereo unspecified)	23	/
CC(C)NC(=O)C1COc2ccccc2O1 (stereo unspecified)	22	-5.0
NC(=O)CSc1nnc(Cc2cccs2)n1C1CCCCC1	3	/
CCOC(=O)c1cc(-c2ccc(F)cc2)n(CC(=O)NCCN(C)C)c1C	6	/
CCOC(=O)C(C(=O)C(F)(F)F)C(NC(N)=S)c1ccsc1 (stereo unspecified)	/	-2.3
O=C1/C(=C/c2ccccc2)Nc2ccccc21	-91	21
COc1ccc(C(=O)OCC(N)=O)cc1OC	-8	/
CC1CC(C)CN(S(=O)(=O)c2ccc(/C(O)=C(\C#N)c3nc4ccccc4s3)cc2)C1 (stereo unspecified)	4	/
CCOC(=O)/C(C)=N/Nc1ccc(F)cc1	-2	/
COCCOC(=O)C1=C(C)NC2=C(C(=O)CC(c3ccc(Cl)cc3)C2)C1c1ccc(N(C)C)cc1 (stereo unspecified)	/	0.5
CCN1CCCC1CNS(=O)(=O)c1ccc(F)cc1F (stereo unspecified)	-2	/
Cc1ccc(OCC(=O)n2c(SCc3ccc(F)cc3)nc3ccccc32)cc1	14	1.8
C=CCn1c(SCC(=O)NC(=O)C2COc3ccccc3O2)nnc1-c1ccccc1 (stereo unspecified)	11	/

Continued.
SMILES	Sa helicase inh	MgrA DNA FP
CN(C)c1ccc(/C=C2\CCCC3C2=NN(C(=O)c2ccco2)C3c2ccc(N(C)C)cc2)cc1 (stereo unspecified)	-15	-1.9
O=C(Nc1cccc(-c2ccc(N3CCCC3)nn2)c1)c1ccccc1	16	/
CCCN1C(=O)/C(=C2\SC(=S)NC2=O)c2cc(Br)ccc21	6	/
CCC1C(=O)C(C)(C)C(=O)OC1c1ccc(Cl)cc1 (stereo unspecified)	17	4.6
CC(C)C(O)(C#CCN1CCOCC1)C(C)C	-22	/
COc1ccccc1CN(Cc1cccs1)C(=O)C1CCCN1C(=O)c1cccs1 (stereo unspecified)	5	/
CN(C(=O)c1ccn[nH]1)C1CC(C)(C)N(C)C(C)(C)C1	6	-1.5
Cc1ccc(-c2onc3ccc(Br)cc23)cc1	-21	/
COC(=O)c1c(C)c(=O)[nH]c2ccccc12	4	2.2
CCOc1cc(C2=NS(=O)(=O)c3ccccc3N2)cc(OCC)c1OCC	-11	/
CN(C)CCNC(=O)c1ccc2c(c1)OCO2	5	1.2
O=C(CCN1C(=O)c2ccccc2C1=O)NCc1ccco1	-9	2.8
CNC(=S)N(CCO)Cc1cc2cc3c(cc2[nH]c1=O)OCCO3	9	0.2
O=S(=O)(c1ccc(Cl)cc1)N(Cc1ccco1)CC(O)Cn1c2ccccc2c2ccccc21 (stereo unspecified)	6	/
COc1ccc(NC(=O)CC2SC(=Nc3ccccc3)N(c3ccccc3)C2=O)cc1 (stereo unspecified)	8	0.9
O=C(Nc1ccc(-c2ccccc2)cc1)c1ccc(Br)o1	-2	0.1
Cc1cc(SCC(=O)NC2CCS(=O)(=O)C2)nc2ccccc12 (stereo unspecified)	13	/
CC(=O)Nc1nc(C2COc3ccccc3O2)cs1 (stereo unspecified)	20	/
COC(=O)c1ccc(S(=O)(=O)NC(C)(C)C)n1C	/	-1.1
COc1ccccc1C(=O)Nc1nnc(-c2ccccc2Cl)s1	17	/
S=C1NC(c2ccccc2)=CC(c2ccsc2)S1 (stereo unspecified)	/	-0.4
CN(C)c1ccc2cccc(O)c2n1	-1	2.9
Cc1ccc2nc(COC(=O)C3CCN(c4ccc(C(F)(F)F)cn4)CC3)cc(=O)n2c1	7	/
c1ccc(-c2nc(Cc3nc4ccccc4[nH]3)no2)cc1	-11	/
O=C(O)/C=C1\SC(=O)N(Cc2ccccc2)C1=O	4	/

(next part)
SMILES	Sa helicase inh	MgrA DNA FP
COC(=O)NCc1ccccc1	/	1.6
COC(=O)Cn1c(Cc2ccccc2)nc2ccccc21	16	-0.8
C/C1=C\C(O)C(C(C)C)C(O)C/C(C)=C/CC1 (stereo unspecified)	-4	5.1
Cc1cccc(OCc2nn[nH]n2)c1C	16	-2.2
Cc1c(C(=O)N2CCN(c3ccccc3)CC2)sc2nc[nH]c(=O)c12	18	/
O=C(c1cc(-c2ccc3c(c2)OCO3)on1)N1CCCCC1	-2	/
CC(C)(C)C(=O)Nc1ccc(F)cc1[N+](=O)[O-]	/	-1.5
Cc1ccc(NC(=O)CNc2ccccc2)cc1	14	-2.4
O=C(c1ccco1)N1CCN(C(=O)C2CCCO2)CC1 (stereo unspecified)	7	-0.8
COc1ccc2oc(=Nc3ccc(C(=O)O)cc3)c(C(=O)NCc3ccccc3)cc2c1	8	3.4
CN(c1cccc(NS(C)(=O)=O)c1)S(C)(=O)=O	19	2.4
O=C(/C=N/O)NCCN1CCCCC1	7	0.5
CC(C)c1ccc(Nc2nn3c(=O)c4ccccc4nc3s2)cc1	3	/
Cc1cc(=O)n(C)c(=O)n1CCCN1CCCC1	9	/
Cc1nc(S/C(=C/c2ccc(-c3ccc(Cl)cc3)o2)C(=O)O)n[nH]1	-12	/
N#Cc1ccc(C2C3=C(CCCC3=O)NC3=C2C(=O)CCC3)cc1	6	-4.2
COc1cccc(NC(=O)NC(C)(C)C)c1	21	-1.2
Cc1oc(-c2cccc(Cl)c2)nc1CN1CCC(C(=O)NCCCN2CCCC2)CC1	14	0.4
CCCN(C(=O)[C@H]1[C@@H]2C[C@@H]3[C@H]1C(=O)O[C@@H]3C2)c1ccccc1F	-23	/
Cc1nc2ccccc2nc1CSc1nncs1	-1	/
N#C/C(=C/c1ccc(-c2ccc(S(N)(=O)=O)cc2)o1)C(=O)Nc1cc(Cl)ccc1Cl	-14	15
CN(C(=O)c1cc2ccccc2oc1=O)C1CCS(=O)(=O)C1 (stereo unspecified)	-28	/
O=c1[nH]cnc2c1sc(=S)n2-c1ccccc1	18	-0.7
COc1cc(/C=C2/SC(=S)NC2=O)cc(OC)c1OC	/	0.7
CC1CC(C)(C)NC(=S)N1CC(=O)N1CCN(c2ccc(F)cc2)CC1 (stereo unspecified)	-18	/
Nc1cc(-c2n[nH]c(=S)o2)ccc1Cl	/	0.6
CC(C)(CO)N1Cc2ccccc2C1=O	/	0.9
CCOc1ccc(Br)cc1C=Nc1ccc2c(c1)OCO2	/	0.8
CC(Oc1ccccc1C(C)C)C(=O)O (stereo unspecified)	-6	-5.9

Gathered by group: the entries above with a furan ring, fused or not.
SMILES	Sa helicase inh	MgrA DNA FP
COc1ccccc1OC(C)C(=O)N(Cc1ccc(Cl)cc1)Cc1ccco1 (stereo unspecified)	-2	/
O=C(c1ccco1)N1CCN(C(=O)c2cc(-c3ccc(F)cc3)no2)CC1	1	2.8
COC(=O)CSc1nnc(-c2ccco2)n1Cc1ccco1	18	-0.6
CCOc1ccc(-n2nc3cc(C)c(NC(=O)c4ccc(Br)o4)cc3n2)cc1	-1	1.9
O=C(Oc1ccc(N(Cc2ccco2)C2=NS(=O)(=O)c3ccccc32)cc1)c1ccco1	35	/
CC(=O)OC(C(=O)NCc1ccco1)c1ccncc1 (stereo unspecified)	5	-0.2
CCc1ccc2occ(CC(=O)Nc3ccc(Cl)cc3)c2c1	4	-0.1
CN(C)c1ccc(/C=C2\CCCC3C2=NN(C(=O)c2ccco2)C3c2ccc(N(C)C)cc2)cc1 (stereo unspecified)	-15	-1.9
O=C(CCN1C(=O)c2ccccc2C1=O)NCc1ccco1	-9	2.8
O=S(=O)(c1ccc(Cl)cc1)N(Cc1ccco1)CC(O)Cn1c2ccccc2c2ccccc21 (stereo unspecified)	6	/
O=C(Nc1ccc(-c2ccccc2)cc1)c1ccc(Br)o1	-2	0.1
O=C(c1ccco1)N1CCN(C(=O)C2CCCO2)CC1 (stereo unspecified)	7	-0.8
Cc1nc(S/C(=C/c2ccc(-c3ccc(Cl)cc3)o2)C(=O)O)n[nH]1	-12	/
N#C/C(=C/c1ccc(-c2ccc(S(N)(=O)=O)cc2)o1)C(=O)Nc1cc(Cl)ccc1Cl	-14	15

Screens as filed in PubChem.

This is a subset. The share of hits here may be higher or lower than overall.
